# Compound activity: PubChem, National Center for Advancing Translational Sciences (NCATS)
# A647 fluor – compound autofluorescence in A647 spectral region; Compound fluorescence, A647 channel (570/671 nm), Tris buffer; max dye-equivalent concentration, M; 59,000 tested, under 10 active; AID 592; active means above 1 µM dye equivalent; inconclusive means 0.1 to 1 µM; inactive means 0.1 µM or less;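 further: values scaled relative to a standard on each plate; highest value over a series up to 38 µM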
#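 Compounds pinned into 100 mM Tris pH 8.0, 15 min at room temperature, then read with 570 nm excitation/671 nm emission filters. Fluorescence normalized to an on-plate six-point Alexa 647 standard curve, giving dye-equivalent concentration per compound concentration.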
# AID923 – qHTS Assay for Allosteric/Competitive Inhibitors of Caspase-1: Spectroscopic Profiling in AFC Spectral Region | AID 923, 2007 | Potency, µM (top dose mostly 57.5 µM), for inactives: at the highest dose fluorescence increase, actives largely listed as activators | actives 1.1% (n = 75,000) | compound fluorescence, AFC spectral region (405/520 nm); almost no hit is shown here; active means well fitted activation curve with a large enough effect; inconclusive means small, poorly fitted or top-dose-only effect;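 further: potency means the concentration at half of the fitted maximal effect; 0% is about no effect; scaled to a free AFC standard on each plate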
#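 Baseline compound fluorescence (AFC region, 405 nm ex/520 nm em) taken from the intercept of kinetic reads with 50 nM caspase-1 and 5 uM Ac-WEHD-AFC; normalized to an on-plate AFC standard curve; compounds titrated up to 57 uM.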
# TSHR agonist – TSH receptor (human) agonism | Potency, µM (series often up to 57.1 µM), inactives show top-dose activation, actives largely listed as activators | AID 926 | HEK293-CNG-TSHR cells (CNG channel as cAMP sensor), membrane potential dye, cAMP | actives 0.48% (n = 73,000); active = well fitted activation curve of enough size with the parental cells flat; inconclusive = any curve in the parental cells; inactive = parental cells flat and receptor cells flat or falling; further: potency means the concentration at half of the fitted maximal effect; % of control where 0% means no effect; weak receptor curves with flat parental cells got no call and are not listed
# Target sequence (P16473 whole entry, looked up): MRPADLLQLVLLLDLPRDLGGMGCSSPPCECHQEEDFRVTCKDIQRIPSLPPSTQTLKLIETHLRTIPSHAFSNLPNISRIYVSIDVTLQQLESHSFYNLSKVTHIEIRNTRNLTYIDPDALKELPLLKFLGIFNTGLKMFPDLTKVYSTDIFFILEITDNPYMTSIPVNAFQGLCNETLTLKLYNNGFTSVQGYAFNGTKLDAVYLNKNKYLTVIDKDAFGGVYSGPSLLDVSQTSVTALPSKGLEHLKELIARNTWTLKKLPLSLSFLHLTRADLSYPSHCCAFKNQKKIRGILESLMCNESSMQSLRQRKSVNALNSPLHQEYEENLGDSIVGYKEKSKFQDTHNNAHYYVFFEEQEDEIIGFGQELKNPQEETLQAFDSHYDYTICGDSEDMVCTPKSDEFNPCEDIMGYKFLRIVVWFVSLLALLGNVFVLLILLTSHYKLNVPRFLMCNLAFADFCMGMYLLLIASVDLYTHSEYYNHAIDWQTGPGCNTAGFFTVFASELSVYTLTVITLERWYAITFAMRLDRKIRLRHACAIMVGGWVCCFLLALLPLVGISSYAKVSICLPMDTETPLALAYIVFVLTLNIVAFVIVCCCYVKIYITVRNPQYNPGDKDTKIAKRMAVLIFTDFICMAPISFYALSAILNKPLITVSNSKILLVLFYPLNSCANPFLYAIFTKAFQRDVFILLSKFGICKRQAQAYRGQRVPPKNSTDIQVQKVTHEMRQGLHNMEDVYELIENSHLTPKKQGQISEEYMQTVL
#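 cAMP rise detected as CNG-channel membrane depolarization by fluorescent dye (emission 590 nm), 30 min after compound, following 60 min dye loading containing 100 uM RO 20-1724 at room temperature. Cells: TSHR/CNG HEK 293, with parental CNG HEK 293 as control.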
# A488 fluor – A488 region autofluorescence | compound autofluorescence, A488 spectral region, dye equivalency; active compounds read high | max dye equivalency, M | actives 0.1% (n = 59,000) | AID 591; active = above 10 nM dye equivalent; inconclusive = 1 to 10 nM; inactive = 1 nM or less; about half of its hits are not listed in these tables;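 further: highest value over a series up to 38 µM; compound alone in buffer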
#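 Read-out: relative fluorescence at 480/540 nm, expressed as Alexa 488 dye-equivalent concentration from a six-point A488 standard included per plate. Conditions: 100 mM Tris, pH 8.0; 15 min incubation, room temperature.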
# Resorufin fluor – resorufin region autofluorescence. Compound fluorescence, resorufin region 547/598 nm, buffer; active compounds read high. max dye-equivalent concentration, M. actives 0.04% (n = 59,000); active = above 10 nM dye equivalent; inconclusive = 1 to 10 nM; inactive = 1 nM or less; a few of its hits are not listed in these tables; further: highest value over a series up to 38 µM
#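 Intrinsic fluorescence profiled in the resorufin window (ex 547 nm, em 598 nm) after 15 min at room temperature in pH 8.0 Tris buffer (100 mM); responses normalized against a six-point resorufin standard series as dye-equivalent concentration.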
# The depositor's hits bear a star; i = inactive; ? = inconclusive; . = not tested or not shown; & = joins results of further samples; [ ] = another dose, or the depositor's remark. A portion of the library (hit frequency here may not be typical).
smiles	TSHR agonist	AID923	A488 fluor	Resorufin fluor	A647 fluor
Cc1cc(C)n(-c2c(F)c(F)c(CN3CCCCC3)c(F)c2F)n1	.	.	i	i	5.5e-08
OCCN1CCN(C(=S)c2ccc(Cl)cc2)CC1	10.1%	-1.4%	i	i	1.35e-08
CCC(=O)N1CCCc2cc(S(=O)(=O)N3CCN(c4ccccn4)CC3)ccc21	5.9%	0.2%	i	i	1e-09
O=C(Nc1ccc(NC(=O)C2CC2)nc1)c1ccccn1	-5.0%	1.3%	i	i	2.1e-09
COC(=O)c1sccc1NC(=O)CN1CCN(c2ccc(F)cc2)CC1	?	-0.5%	i	i	3.6e-09
CCOc1cccc(N2C(=O)CC(N(CCc3ccc(OC)c(OC)c3)C(=O)CC)C2=O)c1 (centres undefined)	.	.	i	i	1e-09
Cc1ccc(Cl)cc1N1CCN(Cc2nc3c(c(=O)[nH]c(=O)n3C)n2CCc2ccccc2)CC1	?	-0.8%	i	i	5.9e-09
OCCCN=C1CCCCC1	7.3%[11.4 µM]	2.2%[11.5 µM]	i	i	3.79e-08
O=C(CC1COc2ccccc2O1)NCc1ccccc1 (centres undefined)	0.7%	-0.2%	i	i	1e-09
CC(CC1C(C#N)=C(N)SC(N)=C1C#N)c1ccccc1 (centres undefined)	-6.7%	2.9%	i	i	1e-09
Cc1cc(C)nc(NS(=O)(=O)c2cccs2)c1	?	0.6%	i	i	4.9e-09
CCCCOCCCNC(=O)c1ccccc1OCC	?	-1.7%	.	.	.
C[C@@H](c1ccccc1)N1C(=O)[C@H]2[C@H]3[C@H](O)[C@H](O)C/C(=N/OCc4ccccc4)[C@H]3CC[C@@H]2C1=O	-12.8%[11.4 µM]	0.1%[11.5 µM]	.	.	.
COCCNC(=O)c1ccc(N(C)S(=O)(=O)c2ccc(OC)c(OC)c2)cc1	?	-2.3%	i	i	9.9e-09
CCOc1ccccc1N=C1NC(=O)CS1	11.1%	3.9%	i	i	4.1e-09
CCNC(=O)Nc1cc2nc(C)n(Cc3ccc(Br)cc3)c2nc1C	1.1%	-0.5%	i	i	3.51e-08
Cc1cc(C)c2[nH]c(=O)c(C(c3nnnn3CC3CCCO3)N3CCC(C)CC3)cc2c1 (centres undefined)	?	3.5%	i	i	1.65e-08
COC(=O)CCC(=O)Nc1ccc(S(=O)(=O)N2CCCCCC2)cc1	?	0.2%	i	i	2.79e-08
COC(=O)C1=C(NC(=O)c2ccc(C)c(C)c2)CCS1	1.9%	5.7%	i	i	1.79e-08
O=C(Cc1cccs1)N1CCCC(c2nc(-c3ccc(S(=O)(=O)N4CCCC4)cc3)no2)C1 (centres undefined)	?	-0.4%	i	i	1.91e-08
CCOc1ccc(N(CC(=O)NCCCOC)S(C)(=O)=O)cc1	0.5%	-2.2%	.	.	.
O=C1OCCC1Sc1nnc(-c2ccc3c(c2)OCO3)n1-c1ccccc1 (centres undefined)	8.5%	-0.6%	i	i	2.01e-08
Cn1c(=O)[nH]c(=O)c2c1nc(CN1CCN(c3ccc(F)cc3)CC1)n2CCCc1ccccc1	?	-0.7%	i	i	1e-09
Cc1ccc2c(c1)-c1c(cnn1CC(=O)N(CCC#N)c1ccccc1)CO2	-3.9%	-0.4%	.	.	.
O=C(c1ccccc1Cl)N1CCCC(c2nc3c(nnn3Cc3ccccc3)c(=O)[nH]2)C1 (centres undefined)	6.7%	0.2%	i	i	5.1e-09
CCCN(CCC)C(=O)c1ccc2c(c1)N(Cc1ccccc1)C(=O)CS2=O (centres undefined)	13.2%	-1.7%	.	.	.
COc1ccc(C(N)CCc2ccc(C)o2)cc1 (centres undefined)	2.6%[11.4 µM]	0.7%	i	i	1e-09
CC1CCC(NC(=O)CN2C(=O)C3CCCN3c3ncc(Cl)cc32)CC1 (centres undefined)	-1.2%	19.5%	i	i	1e-09
O=c1[nH]c(SCc2n[nH]c(=S)n2-c2ccccc2)nc2ccccc12	-22.2%	1.4%	i	i	1.4e-09
Cc1c(C(=O)O)oc2c1C(O)CC(C)(C)C2 (centres undefined)	-3.5%	0.3%	i	i	1e-09
CCCCS(=O)CC(CS(=O)CCCC)OC(=O)c1ccccc1 (centres undefined)	14.1%	2.7%	.	.	.
CC1CN(S(=O)(=O)c2cn(C)c(=O)n(C)c2=O)CC(C)O1 (centres undefined)	39.8µM*	-2.0%	.	.	.
O=C1c2[nH]nc(-c3ccccc3O)c2C(c2cccc(Cl)c2)N1Cc1ccco1 (centres undefined)	.	-1.3%	i	i	4.9e-09
Brc1ccc(-c2cnnc(N3CCCC3)n2)cc1	.	.	i	i	2.94e-08
CS(=O)(=O)N1CCC2(CC1)CN(Cc1ccc(C#N)cc1)C2	-0.1%	1.6%	i	i	3.4e-09
CCCCN(c1ccccc1)S(=O)(=O)c1ccc2c(c1)CCN2C(=O)CCC(=O)O	-2.3%	-3.1%	i	i	1.55e-08
O=C(NCC1CCCO1)c1cc2ccccc2[nH]1 (centres undefined)	5.6%	-1.9%	i	i	1e-09
COC(=O)c1ccc(CSc2nnc3ccccn23)o1	0.7%	0.1%	i	i	5.9e-09
O=C(Oc1ccccc1)c1ccc(COC(=O)c2cnccn2)cc1	.	0.4%	i	i	4.8e-09
c1ccc2sc(SCCSc3nc4ccccc4s3)nc2c1	4.0%[11.4 µM]	-1.8%[11.5 µM]	i	i	4e-09
Cn1c(N)c(C(=O)COC(=O)Cn2cc(C(F)(F)F)ccc2=O)c(=O)n(C)c1=O	18.1%	-0.1%	i	i	1e-09
CN1CCN(CC(C)(C)NS(=O)(=O)c2ccc(Cl)cc2)CC1	5.7%	1.3%	i	i	2.96e-08
CC1(C)Cc2nc3n[nH]c(N)c3cc2CO1	0.4%	4.5%	i	i	1e-09
CC(OC(=O)c1cccs1)C(=O)NCC1CCCO1 (centres undefined)	-2.1%	-2.9%	i	i	1.19e-08
Cc1ccc(S(=O)(=O)NC(=NCC(=O)O)c2ccccc2)cc1	1.2%	-0.8%	.	.	.
O=C(O)CCN(CCC(=O)O)c1nnc(SCc2ccccc2)s1	.	.	i	i	3.9e-09
CCOc1ccccc1N1C(=O)c2ccc(C(=O)Nc3cccnc3)cc2C1=O	-17.9%	4.2%	.	.	.
COc1ccc(N(C)C(=O)CCC(=O)Nc2ccc3nc(N4CCOCC4)cc(C)c3c2)c(OC)c1	5.2%	0.4%	i	i	1e-09
CCn1c(C)c2c(C)nnc(C)c2c1C	-2.9%	12.4%	.	.	.
CC(=O)c1c(C)[nH]c(C(=O)OC2CCOC2=O)c1C (centres undefined)	-2.7%	-1.5%	i	i	5.68e-08
CCOC(=O)c1cccc(NC(=O)CSc2nnc(-c3ccncc3)n2CCCOC)c1	1.1%	0.8%	i	i	2.26e-08
O=C(CSc1nnc(-c2ccncc2)n1Cc1ccco1)Nc1ccccc1Cl	0.4%	0.6%	i	i	2.7e-09
O=C(C[n+]1ccc2ccccc2c1)c1ccc2ccc3ccccc3c2c1	8.1%[11.4 µM]	1.2%[11.5 µM]	i	i	4.33e-08
COC(=O)/C(=C1/Oc2cc3c(cc2S1)OCO3)C(F)(F)F	0.0%[11.4 µM]	-1.8%	i	i	1e-09
O=C(CSc1nccc(=O)[nH]1)N1CCCc2ccccc21	5.0%	-1.3%	i	i	1e-09
O=C(NCc1ccco1)C(c1cccs1)N(Cc1ccccc1)C(=O)Cn1nnc2ccccc21 (centres undefined)	?	-2.7%	i	i	3e-09
CCC(C)NS(=O)(=O)c1ccc(NS(C)(=O)=O)cc1 (centres undefined)	8.0%	-2.4%	i	i	2.68e-08
CCOC(=O)Cn1c(=O)oc2cc(S(=O)(=O)NCc3ccccn3)ccc21	-1.8%	0.4%	.	.	.
COC(=O)[C@@H]1CC[C@H](C)[C@@H](c2ccc(C)cc2)N1C(=O)c1ccc(/C=N\O[C@@H](C)c2cn([C@H](CO)Cc3ccccc3)nn2)cc1	4.0%&0.2%[11.4 µM]	-4.3%&-2.3%[11.5 µM]	.	.	.
N=C1N=C(N)c2cc3ccccc3cc21	-1.6%	17.6%	.	.	.

# Remaining list, next part:
smiles	TSHR agonist	AID923	A488 fluor	Resorufin fluor	A647 fluor
Cc1ncc(C23CC4CC(CC(C4)C2)C3)[nH]1	?	-2.2%	.	.	.
CCOC(=O)N1CCN(C(=O)c2cn(-c3ccc(C)c(C)c3)c(=O)c3ccccc23)CC1	.	0.1%	i	i	6.7e-09
CC1(C)NC(=O)N(CCOc2cccc(Cl)c2Cl)C1=O	-2.2%	-0.3%	i	i	9e-09
CCN1CCN(Cc2c(O)ccc3c(=O)c(-c4ccccc4OC)coc23)CC1	-3.6%	3.1%	i	i	1e-09
CCCCOC(=O)Cn1cnc2ccc(Br)cc2c1=O	3.1%	-0.2%	i	i	5.7e-09
O=C1CSC(c2cccs2)N1c1ccccc1 (centres undefined)	3.3%	-0.3%	i	i	2.83e-08
CCOCCCNc1nc(=S)[nH]c2cc(OC)c(OC)cc12	10.2%	1.3%	i	i	1.05e-08
COc1ccc(C2N3CC4(C)CN2CC(C)(C3)C4)cc1OC (centres undefined)	4.0%	1.6%	i	i	5.6e-09
Cc1ccc(S(=O)(=O)NC(CC(=O)O)c2ccccc2)c(C)c1 (centres undefined)	-4.2%	0.4%	i	i	3.16e-08
Cc1cccc2cc3c(N)c(C#N)sc3nc12	-15.7%	4.8%	i	i	1.99e-08
COc1ccc(CNc2nc(-c3cccnc3)nn2C(=O)c2cccs2)cc1	24.3%	3.3%	i	i	1e-09
Cc1nn(-c2ccccc2)c2c1C(c1ccco1)C(C#N)=C(N)O2 (centres undefined)	-3.3%	-3.7%	i	i	3.2e-09
O=c1[nH]c(SCc2ccccc2[N+](=O)[O-])nc2nc[nH]c12	-2.2%[11.4 µM]	-2.6%&-0.4%[11.5 µM]	i	i	1e-09
O=C1CC(c2ccc3c(c2)OCO3)Sc2nc3ccccc3n21 (centres undefined)	?	5.7%	i	i	1e-09
CSc1nc(N2CCCC2)c2c(c1C#N)CC(C)(C)OC2	.	.	i	i	1e-09
N#C/C(=C(\O)C(=O)O)c1ccc(-c2cccc3ccccc23)cc1	1.3%[11.4 µM]	1.9%[11.5 µM]	i	i	2.54e-08
CN(C)S(=O)(=O)N1CCN(CC(O)COc2ccc3cc(Br)ccc3c2)CC1 (centres undefined)	-18.1%	-0.9%	i	i	2.14e-08
CCOc1ccc2c(c1)n([O-])c1c([n+]2=O)CCCC1	.	.	i	i	2.2e-09
CN(C)C(=O)c1c(-c2ccccc2)oc2ccc(O)cc12	17.8%	1.3%	i	i	2.7e-09
CCn1c(CC(=O)Nc2ccc(C)cc2)nnc1SCC(=O)NCc1ccccc1	-4.7%	-0.4%	i	i	2.25e-08
COc1ccc(S(=O)(=O)NCCC(=O)NCc2ccccc2)cc1	5.6%	-0.9%	i	i	9.3e-09
Cc1[nH]nc(N=CC2=C(O)CC(C)(C)CC2=O)c1-c1ccc(Cl)cc1	-2.0%	2.1%	i	i	3e-09
COc1ccccc1C(CCN(Cc1cccs1)C(C)=O)c1ccco1 (centres undefined)	?	0.8%	i	i	1e-09

# Whole records as entered above.
# Cc1nn(-c2ccccc2)c2c1C(c1ccco1)C(C#N)=C(N)O2 (centres undefined) is listed as TSHR agonist = -3.3%; AID923 = -3.7%; A488 fluor = i; Resorufin fluor = i; A647 fluor = 3.2e-09
# N#C/C(=C(\O)C(=O)O)c1ccc(-c2cccc3ccccc23)cc1 is listed as TSHR agonist = 1.3%[11.4 µM]; AID923 = 1.9%[11.5 µM]; A488 fluor = i; Resorufin fluor = i; A647 fluor = 2.54e-08
